Source: PubChem
HSV replic up: enhancers of HSV replication in host cells, fold increase, host cell viability | maximum fold increase | HSV replication augmentation in cells | AID 1956, 2009 | 0.005% of 220,000 active;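 active = peak rise of 1.5-fold or more in the series; tested in PC3 cells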;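 note: first round at 10 µM; read as green reporter fluorescence; hits show the peak of a series up to 25 µM; 1 = signal of infected wells without compound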
GALR2 agonist: GALR2 receptor agonists, primary screen, cell-based. 0.48% of 140,000 active. GALR2-expressing cells, agonist activation read-out. AID 803, 2007. activation, %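 (tested at 5 µM)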;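 active = above mean plus 3 SD of all compounds, about 5% in these data, not always enough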;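 note: 0% = vehicle buffer wells and 100% = reference agonist at full effect; tested in CHO reporter cells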
Target sequence (O43603 whole entry, looked up): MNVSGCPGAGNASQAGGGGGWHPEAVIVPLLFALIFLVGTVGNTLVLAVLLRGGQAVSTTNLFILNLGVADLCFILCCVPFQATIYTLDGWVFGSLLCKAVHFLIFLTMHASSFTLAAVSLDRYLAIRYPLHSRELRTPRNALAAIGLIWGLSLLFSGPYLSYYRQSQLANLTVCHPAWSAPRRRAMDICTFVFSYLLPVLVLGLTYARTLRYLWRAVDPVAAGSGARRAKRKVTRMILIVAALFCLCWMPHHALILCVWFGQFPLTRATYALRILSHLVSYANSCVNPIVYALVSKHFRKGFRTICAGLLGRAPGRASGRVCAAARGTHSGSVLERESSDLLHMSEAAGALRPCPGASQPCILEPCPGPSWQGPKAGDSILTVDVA
RGS16-Gao HTS: modulators of RGS16 binding to Galphao, primary screen, biochemical, human proteins, multiplexed bead flow cytometry; Regulator of G-protein signaling 16 (Homo sapiens) + Guanine nucleotide-binding protein …; bead-based flow cytometry RGS16-Galphao binding, fluorescence; actives lie on both sides; binding response (% of control), % at 10 µM; 0.38% of 220,000 active; AID 1441, 2008;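 active = below 25% or above 175%, edge rows of some plates excepted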;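 note: Galphao activated by GDP with aluminum fluoride before binding; 100% = wells without compound and 0% = beads without RGS; some results beyond the cut were filed as inactive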
Target sequence (O15492 whole entry, looked up): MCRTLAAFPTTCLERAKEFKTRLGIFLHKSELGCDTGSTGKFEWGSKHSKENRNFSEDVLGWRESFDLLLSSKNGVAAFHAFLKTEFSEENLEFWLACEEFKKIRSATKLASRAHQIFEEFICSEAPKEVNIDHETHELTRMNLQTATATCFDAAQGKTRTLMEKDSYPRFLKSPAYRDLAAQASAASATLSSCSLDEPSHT
Target sequence (P09471 whole entry, looked up): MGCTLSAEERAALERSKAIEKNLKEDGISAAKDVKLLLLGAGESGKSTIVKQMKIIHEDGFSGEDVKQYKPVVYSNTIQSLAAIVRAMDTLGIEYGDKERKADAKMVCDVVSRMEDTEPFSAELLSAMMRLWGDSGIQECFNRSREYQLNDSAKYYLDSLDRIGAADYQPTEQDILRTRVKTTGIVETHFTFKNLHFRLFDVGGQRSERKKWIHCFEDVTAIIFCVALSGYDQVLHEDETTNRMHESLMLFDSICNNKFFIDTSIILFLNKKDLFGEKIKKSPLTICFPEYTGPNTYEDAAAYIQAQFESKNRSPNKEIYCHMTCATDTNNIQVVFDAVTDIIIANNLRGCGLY
Insulin prom inh: inhibitors of insulin promoter-driven GFP, primary screen, imaging, TRM-6 cells (human fetal islet line), eGFP reporter, cell count | reporter expression induced with tamoxifen | 0.9% of 130,000 active | inhibition, % at 2 µM;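 active = inhibition above the mean plus 3 SD, with well images judged a real hit on visual review, cut at about 60% in these data, passing the limit was not always enough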
PKD1 inh: inhibitors of human PKD1 kinase, biochemical, fluorescence polarization. PKD1 kinase fluorescence polarization assay. Serine/threonine-protein kinase D1 (Homo sapiens), Q15139. AID 797, 2007. inhibition, %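 (about 10 µM by stock and volumes)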. 0.056% of 200,000 active;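 active = inhibition of 50% or more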;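 note: controls were vehicle for no effect and a reference inhibitor for full effect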
Insulin prom inh cell count: also measured in Insulin prom inh; calls as there; normalized cell count, %; measured here: cell count, toxicity; reference of the scale not given here;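 cells exposed to compound for 48 h; stained nuclei by imaging scaled within each plate; lower means fewer cells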
HSV replic up primary fold: further read-out of HSV replic up, marked with its call; fold increase; compound at 10 µM; measured here: primary screen fold increase 10 uM; tested in PC3 cells;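 GFP signal in the first replicate; 1 = infected wells without compound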
* hit, by the source's call; i = inactive; · = no result given.

Each structure is followed by: RGS16-Gao HTS, HSV replic up, Insulin prom inh, Insulin prom inh cell count, HSV replic up primary fold, GALR2 agonist, PKD1 inh
> N/C(=N\c1nc2ccccc2o1)NC(=O)c1ccc([N+](=O)[O-])cc1
→ 100, i, ·, ·, 0.65, ·, ·
> COc1cccc(/C=C2\SC(=S)N(c3cccnc3)C2=O)c1OC
→ 109, i, 21, 121, 1.1, ·, 1
> CC(=O)c1cn(N(C)c2ncc(C(F)(F)F)cc2Cl)c(=O)[nH]c1=O
→ 97, i, ·, ·, 0.87, ·, -7
> NC(=O)CSc1nnnn1CC(CC(=O)O)c1ccccc1 (stereo not drawn)
→ 111, i, 10, 47, 0.77, -1.7, -11
> O=C(NCc1cccnc1)c1ccc(COc2ccccc2Br)o1
→ 106, i, -3, 153, 0.75, -0.8, -4
> CCCCN(CC)C(=O)CSc1nc2ccccc2c(=O)n1CC1COc2ccccc2O1 (stereo not drawn)
→ 112, i, -31, 69, 0.73, -1.5, -4
> O=C(c1ccc2snnc2c1)N1CCCCC1
→ 105, i, -467, 70, 0.91, -2.3, -10
> OCCSc1c(F)c(SCCO)c(SCCO)c(F)c1SCCO
→ 103, i, -9, 120, 0.89, -2.1, 7
> COc1ccccc1CN(Cc1nc2ccccc2c(=O)[nH]1)S(=O)(=O)c1ccc2ccccc2c1
→ 104, i, 0, 94, 0.58, 0.5, -2
> CN(C)S(=O)(=O)c1cccc(NC(=O)NCCCl)c1
→ 97, i, ·, ·, 1, ·, ·
> COc1ccc(N2CCN(C(=O)c3csc4ccccc34)CC2)cc1
→ 104, i, -46, 107, 0.76, -1.9, 2
> Cc1ccc(NC(=O)COc2cccc3ccc(C)nc23)c(Br)c1
→ 111, ·, -42, 91, ·, 0.1, -1
> CN1CCCC(OC(=O)c2cccc(Cl)c2)C1 (stereo not drawn)
→ 101, i, ·, ·, 1.1, ·, ·
> O=C(Nc1ccc(Cn2nnc3ccccc32)cc1)c1ccco1
→ 131, i, 17, 111, 0.79, -0.1, 7
> CCOC(=O)/C(=N\Nc1cccc(C(F)(F)F)c1)N1CCOCC1
→ 103, i, ·, ·, 1.1, ·, 0
> O=C(COc1cccnc1[N+](=O)[O-])Nc1ccc2c(c1)CCC2
→ 97, i, ·, ·, 0.88, ·, ·
> CC(C)C(NC(=O)c1ccco1)C(=O)NCC(c1ccco1)N(C)C (stereo not drawn)
→ 106, i, -30, 87, 1, -1.8, -6
> CC(=O)Nc1ccc(-c2nnn(CC(=O)Nc3ccc4c(c3)OCO4)n2)cc1Cl
→ 97, i, ·, ·, 0.95, ·, -1
> O=C(O)c1cccc(S(=O)(=O)N2Cc3ccccc3C2)c1
→ 102, i, 69, 122, 0.96, -1.1, -2
> Cc1ccc2c(c1)C1CN(C)CCC1N2C(=O)c1ccccc1NS(=O)(=O)c1ccc(F)cc1C (stereo not drawn)
→ 104, i, -8, 74, 0.81, -3.3, -7
> CN(C)Cc1ccccc1C1(O)c2ccccc2CSc2ccccc21 (stereo not drawn)
→ 106, i, -31, 117, 1, -1.8, -5
> COC(=O)c1ccccc1NC(=O)CSc1nnc(-c2ccc(OC)cc2)n1C
→ 107, i, -69, 109, 1, -1.5, 0
> Cc1cc2c3c(c1)C(C)CC(C)(C)N3C(=O)C2=O (stereo not drawn)
→ 107, i, 17, 98, 0.95, ·, -11
> O=C(O)C1C(c2ccccc2)C(C(=O)N2CCOCC2)C1c1ccccc1 (stereo not drawn)
→ 92, i, ·, ·, 0.9, -2.4, 4
> COc1ccccc1C(O)(C(=O)NNc1ccccc1C)c1ccccc1OC
→ 96, i, -40, 113, 0.95, 0.9, 0
> N#CCCn1cc(C=O)c(-c2cccs2)n1
→ 96, i, ·, ·, 0.77, ·, 1
> Cc1ccc(/C(N)=N/OC(=O)c2ccc(Cl)cc2Cl)cc1
→ 98, i, 15, 80, 0.98, -1.8, -11
> Cc1nc(-c2ccc(NC(=O)c3ccccc3Br)cc2)cs1
→ 106, i, 26, 129, 0.82, 0.5, -10
> COc1ccc(C(=O)C[n+]2ccc3ccccc3c2C)cc1
→ 100, i, ·, ·, 0.98, ·, ·
> c1ccc(Cn2c3ccccc3c3nnc(SCCN4CCCCC4)nc32)cc1
→ 101, i, ·, ·, 0.69, ·, ·

At a glance, part of the list above:
Each structure is followed by: RGS16-Gao HTS, HSV replic up, Insulin prom inh, Insulin prom inh cell count, HSV replic up primary fold, GALR2 agonist, PKD1 inh
> N/C(=N\c1nc2ccccc2o1)NC(=O)c1ccc([N+](=O)[O-])cc1
→ 100, i, ·, ·, 0.65, ·, ·
> COc1cccc(/C=C2\SC(=S)N(c3cccnc3)C2=O)c1OC
→ 109, i, 21, 121, 1.1, ·, 1

Arranged by the number under PKD1 inh (ascending): four of the compounds above
Compound	RGS16-Gao HTS	HSV replic up primary fold	GALR2 agonist	PKD1 inh
Cc1cc2c3c(c1)C(C)CC(C)(C)N3C(=O)C2=O (stereo not drawn)	107	0.95	·	-11
O=C(O)c1cccc(S(=O)(=O)N2Cc3ccccc3C2)c1	102	0.96	-1.1	-2
COC(=O)c1ccccc1NC(=O)CSc1nnc(-c2ccc(OC)cc2)n1C	107	1	-1.5	0
N#CCCn1cc(C=O)c(-c2cccs2)n1	96	0.77	·	1

Next records.
Each structure is followed by: RGS16-Gao HTS, HSV replic up, Insulin prom inh, Insulin prom inh cell count, HSV replic up primary fold, GALR2 agonist, PKD1 inh
> COC(=O)c1ccc(CN2CCN(C(C)C)C(CCO)C2)cc1 (stereo not drawn)
→ 105, i, -28, 122, 1.2, ·, -2
> CC1CC(C)CN(CCCNC(=O)C2CCCN(c3nnc(N4CCCC4=O)s3)C2)C1 (stereo not drawn)
→ 138, i, 24, 76, 1, -0.9, -10
> O=C1C(c2ccncc2)N(CCC2=CCCCC2)C(=O)CN1C1CCCCC1 (stereo not drawn)
→ 102, i, ·, ·, 0.9, -2.0, -3
> COc1ccc(-n2c(Cc3ccccc3)nnc2SCc2ccc([N+](=O)[O-])cc2)cc1
→ 105, i, 0, 149, 0.81, -2.3, -4
> Cc1cc(NC(=O)C2CC(c3ccc(F)cc3)=NO2)no1 (stereo not drawn)
→ 104, i, ·, ·, 0.91, -1.5, -12
> CCN(CC)C(=O)c1ccc(S(=O)(=O)N2CCC(c3nc4ccccc4s3)CC2)cc1
→ 107, i, 39, 102, 1.1, -0.4, 2
> COCCNC(=O)COc1ncnc2scc(-c3ccc(F)cc3)c12
→ 103, i, ·, ·, 0.97, ·, 0
> Cc1noc(/C=C/N(C)C)c1S(=O)(=O)N1CCCC(C(=O)Nc2ccc3c(c2)OCO3)C1 (stereo not drawn)
→ 110, i, ·, ·, 0.92, -3.1, -6
> CC(NS(=O)(=O)c1ccc(Br)cc1)C(c1cccs1)N1CCOCC1 (stereo not drawn)
→ 101, i, -22, 71, 0.94, -0.1, -9
> CC(C)(C)NC(=O)C1CN(S(=O)(=O)c2ccccc2)CCN1S(=O)(=O)c1ccccc1 (stereo not drawn)
→ 117, i, -181, 98, 0.94, -1.0, -4
> COc1cccc(/C=N/N2CCN(C)CC2)c1
→ 110, i, 73*, 94*, 1, -2.0, 10
> O=C(O)C1CC1c1ccc(Br)cc1 (stereo not drawn)
→ 101, i, ·, ·, 0.93, -1.8, -3
> Cc1cc(C)c(S(=O)(=O)N2CCCCC2)c(C)c1-n1ncnn1
→ 94, i, 53, 139, 0.71, -1.1, 17
> O=S(=O)(c1ccc2c(c1)OCCO2)N1CCN(c2cccc(Cl)c2)CC1
→ 105, i, 27, 101, 0.9, -2.4, 6
> O=C(COC(=O)CCSc1ccc(Cl)cc1)NCc1ccccc1
→ 105, i, -3, 83, 0.95, -1.1, 5
> O=C(/C=C/c1cccc(Br)c1)N1CCN(c2ccccn2)CC1
→ 100, i, 18, 188, 1.1, ·, 6
> Cc1ccc(-n2c(=O)c3c4c(sc3n3c(=S)[nH]nc23)CCC4)cc1
→ 102, i, ·, ·, 1.3, ·, ·
> COc1ccc(N(C(=O)C(C)C)S(=O)(=O)c2cccs2)cc1
→ 96, i, -40, 89, 0.79, -1.3, -1
> Cc1nn(Cc2ccccc2)c(Cl)c1C(=O)OCC(=O)NC(=O)NC12CC3CC(CC(C3)C1)C2
→ 112, i, 6, 106, 0.95, 0.6, 0
> Cn1c(=O)[nH]c(=O)c2c1nc(N/N=C/c1ccncc1)n2Cc1ccc(Cl)cc1
→ 106, i, ·, ·, 0.74, ·, ·
> COc1ccccc1NC(=O)Cn1c(=O)c(N(C)C)c(N)n(C)c1=O
→ 100, i, -7, 66, 1, ·, 1
> CCCSC1=C(C#N)C(c2ccccc2OCC)CC(=O)N1 (stereo not drawn)
→ 101, i, -195, 119, 1.2, -2.8, -3
> Cc1ccc(Sc2c(CO)c(-c3ccccc3)nn2C)cc1
→ 83, i, -264, 4, 0.77, ·, 2
> Cc1cc(=O)[nH]c(N=N/C(=N/Nc2ccccc2C)c2ccccc2)n1
→ 95, i, 3, 73, 0.7, -2.3, 6
> O=C(NC(Cc1ccccc1)C(=O)O)/C(=C\c1ccco1)NC(=O)c1ccc(Br)cc1 (stereo not drawn)
→ 99, ·, ·, ·, ·, -1.1, 2
> CCCCN(C(=O)c1ccc(NC(=O)C(C)C)cc1)c1ccccc1
→ 102, i, ·, ·, 0.84, ·, -2
> CCOC(=O)C1CCN(C(=O)c2ccccc2N(C)S(=O)(=O)c2ccccc2)CC1
→ 104, i, -8, 118, 1.1, 0.4, -10
> COc1cc(C2c3sc(=O)[nH]c3SC3C(=O)N(c4ccc(C)cc4)C(=O)C32)ccc1O (stereo not drawn)
→ 102, i, ·, ·, 1.3, ·, ·
> COc1ccc(NC(=S)Nc2cc(C)ccn2)c(OC)c1
→ 118, i, ·, ·, 0.89, -2.6, 1
> CC(C)(C)CC(C)(C)NC(=S)Nc1ccc2nc(-c3ccccn3)c(-c3ccccn3)nc2c1
→ 102, ·, -6, 46, ·, -0.2, -15

Look-ups from the entries so far:
RGS16-Gao HTS with c1ccc(Cn2c3ccccc3c3nnc(SCCN4CCCCC4)nc32)cc1 is entered as 101
GALR2 agonist with O=C(NCc1cccnc1)c1ccc(COc2ccccc2Br)o1 is entered as -0.8
Insulin prom inh cell count with Cc1ccc(NC(=O)COc2cccc3ccc(C)nc23)c(Br)c1 is entered as 91
Insulin prom inh cell count with Cc1nn(Cc2ccccc2)c(Cl)c1C(=O)OCC(=O)NC(=O)NC12CC3CC(CC(C3)C1)C2 is entered as 106

Continued.
Each structure is followed by: RGS16-Gao HTS, HSV replic up, Insulin prom inh, Insulin prom inh cell count, HSV replic up primary fold, GALR2 agonist, PKD1 inh
> COc1cc(C2C(C(N)=O)=C(C)Nc3nc(CCCO)nn32)cc(OC)c1OC (stereo not drawn)
→ 100, i, ·, ·, 1.2, ·, -9
> COC(=O)c1c(N2C(=O)[C@H]3[C@@H](C2=O)[C@]2(C(=O)Nc4ccc(C)cc42)N2CCC[C@@H]32)sc(C)c1C
→ 100, i, -75, 101, 0.93, ·, -7
> C=CCn1c(SCc2ccc([N+](=O)[O-])cc2)nnc1C(C)NC(=O)c1ccccc1 (stereo not drawn)
→ 92, i, -52, 87, 0.83, -1.4, 0
> COc1cccc(OC)c1-c1nn2c(-c3cc(-c4ccccc4)n[nH]3)nnc2s1
→ 108, i, ·, ·, 0.69, 4.3, -1
> O=C(c1ccc(Cl)cc1)N1CCCOC1
→ 103, i, 10, 131, 0.82, -3.2, -9
> CCOc1ccc(OCC)c(S(=O)(=O)n2cc(C)nc2CC)c1
→ 107, i, ·, ·, 0.85, ·, -2
> C=CCn1c(SC2CCOC2=O)nc2scc(C3CC3)c2c1=O (stereo not drawn)
→ 95, i, ·, ·, 0.96, -2.0, -1
> Cc1ccc(Nc2nc(-c3ccc(C)cc3)c(CC(=O)O)s2)cc1
→ 99, i, ·, ·, 1.2, ·, 4
> O=C(NNc1ccc([N+](=O)[O-])cc1[N+](=O)[O-])C1C2CCCCC21 (stereo not drawn)
→ 103, i, 15, 68, 1, -0.5, 1

Entries above containing a cyano group, in the order listed:
Each structure is followed by: RGS16-Gao HTS, HSV replic up, Insulin prom inh, Insulin prom inh cell count, HSV replic up primary fold, GALR2 agonist, PKD1 inh
> N#CCCn1cc(C=O)c(-c2cccs2)n1
→ 96, i, ·, ·, 0.77, ·, 1
> CCCSC1=C(C#N)C(c2ccccc2OCC)CC(=O)N1 (stereo not drawn)
→ 101, i, -195, 119, 1.2, -2.8, -3
